VDR inh: inhibitors of human vitamin D receptor; Potency, µM, inactives show max response, negative = inhibition, actives largely listed as inhibitors; P11473; AID 504847; 400,000 tested, 0.93% active; VDR-SRC2-3 peptide fluorescence polarization, 2 h; active = well fitted inhibition curve with a large enough effect; inconclusive = small, poorly fitted or top-dose-only effect, or another doubt; inactive = no such curve, though single readings can be large or run the other way; also: series mostly up to about 120 µM
Target sequence (P11473 whole entry, looked up): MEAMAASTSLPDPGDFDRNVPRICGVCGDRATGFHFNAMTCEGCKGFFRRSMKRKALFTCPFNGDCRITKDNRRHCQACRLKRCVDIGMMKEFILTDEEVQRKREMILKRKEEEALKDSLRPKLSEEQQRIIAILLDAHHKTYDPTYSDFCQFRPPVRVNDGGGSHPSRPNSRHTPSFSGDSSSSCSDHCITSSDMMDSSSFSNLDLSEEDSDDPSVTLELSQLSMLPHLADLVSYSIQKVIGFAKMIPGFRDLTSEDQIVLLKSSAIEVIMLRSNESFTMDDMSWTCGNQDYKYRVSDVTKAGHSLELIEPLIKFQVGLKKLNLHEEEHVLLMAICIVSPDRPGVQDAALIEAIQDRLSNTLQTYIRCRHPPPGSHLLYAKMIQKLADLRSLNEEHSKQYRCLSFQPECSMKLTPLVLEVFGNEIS
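FP read-out; VDR + SRC2-3 coactivator peptide; 23 nl compound by pintool; 2 h RT incubation; reagents held at 4 deg C, protected from light.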
The depositor's hits bear a star; u = inconclusive. % is scaled to controls: 0 for no effect and ±100 for the full control effect; potency is read from the fitted curve at half-maximal effect.

> CCNc1nnc(SCC(=O)c2c(N)n(C3CC3)c(=O)[nH]c2=O)s1
  VDR inh = 2%
> CCC(=O)N1CCN(c2ccc(NC(=O)c3ccc4c(c3)OCO4)cc2)CC1
  VDR inh = -16%
> Cc1ccc(SCC(=O)NC(=O)NC(C)C)c(C)c1
  VDR inh = 15%
> CCCNS(=O)(=O)c1ccc(OCC(=O)NCCCOC)cc1
  VDR inh = -21%
> O=C(Nc1cccc(C(=O)O)c1)/C(=C\c1ccc2c(c1)OCO2)NC(=O)c1ccc(Br)cc1
  VDR inh = 24%
> O=C(NCCc1ccccc1)C1CCC(CNS(=O)(=O)c2cccc3cccnc23)CC1 (stereo not given)
  VDR inh = 17%
> COCCc1ncc(CN2CCCCC2C(=O)Nc2ccc(Oc3ccccc3)nc2)cn1 (stereo not given)
  VDR inh = 0%
> O=C(Nc1cccc2c1[nH]c1ccccc12)C(F)(F)F
  VDR inh = -7%
> COC(=O)c1c(C)oc(C)c1S(=O)(=O)NCc1ccc(Cl)cc1Cl
  VDR inh = 12%
> Cc1cc(C)n(CCCNC(=O)C2CCC(=O)N(CCc3ccc(Cl)cc3)C2)n1 (stereo not given)
  VDR inh = -4%

> CCOC(=O)CN1C(=O)CCSc2ccc(Cl)cc21
  VDR inh = 4%
> COc1ccc(CCNC(=O)c2ccc(OCc3c(C)noc3C)cc2)cc1OC
  VDR inh = 2%
> C[C@H](NC(=O)C1CC(=O)N(c2ccc3c(c2)OCO3)C1)C(=O)NCc1ccco1 (stereo not given in full)
  VDR inh = -4%
> O=S(=O)(c1ccc2c(c1)nc(COc1ccc(Cl)cc1)n2CC1CCCO1)N1CCOCC1 (stereo not given)
  VDR inh = 7%
> CC(=O)Nc1ccc(S(=O)(=O)N[C@@H](C)C(=O)OCC(=O)c2ccc[nH]2)cc1
  VDR inh = -3%
> Cc1c(Cl)cccc1NC(=O)NCc1ccc(C)n1C
  VDR inh = -7%
> CC(C)=N/N=C1/NC(=O)C(c2ccccc2)S1 (stereo not given)
  VDR inh = -4%
> COc1cccc(N2CCN(C(=O)c3oc4ccccc4c3NC(=O)CCc3cc(OC)no3)CC2)c1
  VDR inh = -1%
> CC(Sc1ccccc1F)C(=O)Nc1ccc2c(c1)OCCO2 (stereo not given)
  VDR inh = -6%
> Cc1[nH]c(=S)n(CC2CCCO2)c1C (stereo not given)
  VDR inh = -18%

> Cc1noc(C)c1C(=O)Nc1ccc(F)cc1
  VDR inh = 5%
> CCOc1ccc(CCNC(=O)CCCn2nc(C)c3sc4ccccc4c3c2=O)cc1OCC
  VDR inh = 5%
> OC(c1ccccc1)(c1ccccc1)c1ccn[nH]1
  VDR inh = -13%
> COc1ccccc1NC(=O)Cn1nc(Cc2cccnc2)c2ccccc2c1=O
  VDR inh = -3%
> O=S(=O)(NCc1ccccn1)c1ccc(Cl)c(C(F)(F)F)c1
  VDR inh = -2%
> O=C(C1CCCN(S(=O)(=O)c2cccnc2)C1)N1CCN(c2ccccn2)CC1 (stereo not given)
  VDR inh = -2%
> Cc1c(C(=O)Nc2ccc(S(=O)(=O)NCC3CCCO3)cc2)cccc1[N+](=O)[O-] (stereo not given)
  VDR inh = 24%
> Cc1cc(Nc2cccc(C(F)(F)F)c2)nc2ccc(NC(=O)c3cccc(Cl)c3)cc12
  VDR inh = 3%
> CCOC(OCC)c1ccc(/C=C\c2nccc(N)n2)cc1
  VDR inh = 0%
> COc1ccc(Cn2nnnc2C(c2cccnc2)N2CCN(c3ccc(O)cc3)CC2)cc1 (stereo not given)
  VDR inh = 8%

> Cc1ccc(C(=O)c2no[n+]([O-])c2C(=O)c2ccc(C)cc2)cc1
  VDR inh = u
> COc1ccc(NS(=O)(=O)c2csc(C(N)=O)c2)cc1
  VDR inh = -3%
> CCOC(=O)c1ccc(-n2c(CCC(=O)O)ccc2-c2ccc(Br)cc2)cc1
  VDR inh = u
> NC(=O)C1CCN(C(=O)c2ccco2)CC1
  VDR inh = -23%
> COc1ccc2c(c1)C1=NN(/C(C)=C/C(C)=O)C(c3ccc(F)cc3)C1CC2 (stereo not given)
  VDR inh = u
> CC(OC(=O)c1cc(S(=O)(=O)N2CCOCC2)ccc1F)C(=O)NC1CCCCC1C (stereo not given)
  VDR inh = 10%
> CS(=O)(=O)N(Cc1ccc(Cl)cc1)c1ccc(C(=O)NCC2CCCO2)cc1 (stereo not given)
  VDR inh = 3%
> CCc1ccccc1NC(=O)C(C)n1c(=O)cc(C)c2c(C)nn(-c3ccccc3)c21 (stereo not given)
  VDR inh = -3%
> Fc1ccc(C2CCNCC2COc2ccc3c(c2)OCO3)cc1 (stereo not given)
  VDR inh = -4%
> Clc1ccc(-c2noc3ncnc(NCCCN4CCN(c5ccccc5)CC4)c23)cc1
  VDR inh = 2%

> COc1cccc(CNC(=O)c2c3c(nc4ccccc24)C(=O)N(C2CCCCC2)C3)c1
  VDR inh = 11%
> COc1ccccc1CNC(=O)c1cc2c(C)nn(Cc3ccc(F)cc3)c2s1
  VDR inh = 8%
> Cc1ccc(F)cc1NC(=O)c1sc2ncn(CC(=O)N3CCN(c4ccccn4)CC3)c(=O)c2c1C
  VDR inh = -9%
> C=CCNC(=O)c1ccc(Cn2cc(C(F)(F)F)ccc2=O)cc1
  VDR inh = 4%
> COc1cc(C2CC(=O)Nc3cc4c(cc32)OCO4)cc(OC)c1O (stereo not given)
  VDR inh = -29%
> Oc1oc(-c2cccc3ccccc23)nc1/C=N/c1nccs1
  VDR inh = 0%
> Cc1nc(-c2ccc(S(=O)(=O)Nc3cc(F)ccc3F)cc2)co1
  VDR inh = 7%
> O=C(/C=C/c1ccc2c(c1)OCO2)c1ccc(F)cc1
  VDR inh = u
> O=C(CNC(=O)c1cccc(F)c1)OCCOc1cccc(Cl)c1
  VDR inh = -6%
> O=C(Cc1ccccc1)Nc1ccccc1C(=O)N1CCCCC1
  VDR inh = 9%

> CCOc1cc(N2CCOCC2)c(OCC)cc1NC(=O)CN1C(=O)NC2(CCCCC2)C1=O
  VDR inh = -6%
> COc1ccccc1C(=O)n1nc(C)cc1C
  VDR inh = 8%
> CC(C)(O)C#Cc1ccc(C(=O)N2CCC(C(N)=O)(N3CCCCC3)CC2)o1
  VDR inh = -3%
> Cc1sc(N)nc1-c1ccccc1
  VDR inh = -3%
> Cc1cc(C)nc(SCC(=O)c2ccc(C)c(C)c2)n1
  VDR inh = -6%
> O=C(Nc1cc(Sc2ccccn2)cc([N+](=O)[O-])c1)c1ccc([N+](=O)[O-])cc1
  VDR inh = u
> CCC(NS(=O)(=O)c1ccc(C)cc1)C(=O)O (stereo not given)
  VDR inh = -1%
> COc1cccc(C(=O)Nn2cnnc2)c1
  VDR inh = 1%
> CN(CCNC(=O)c1cn(C)c2ccc(S(=O)(=O)N(C)C)cc2c1=O)CCc1ccccc1
  VDR inh = 4%
> O=C(COc1cccnc1[N+](=O)[O-])Nc1ccc2c(c1)OCO2
  VDR inh = 8%

> CC(=O)Nc1ccc(Nc2nc(C)c([N+](=O)[O-])c(Nc3ccccc3)n2)cc1
  VDR inh = u
> Cn1nc(C(=O)N2CCN(c3ccccc3)CC2)c2c1-c1ccccc1SC2
  VDR inh = 13%
> COc1ccc(S(=O)(=O)N2CCC[C@H]2C(=O)NC2=NCCS2)cc1
  VDR inh = -5%
> CCOc1ccc(NC(=O)C23CC4CC(C2)CC(c2ccccc2)(C4)C3)cc1
  VDR inh = -7%
> C=C(C)C1CC=C(C)/C(=N/NC(=O)CNc2ccc(C)cc2C)C1 (stereo not given)
  VDR inh = -4%
> CC1CCCCN1S(=O)(=O)Cc1ccccc1Cl (stereo not given)
  VDR inh = -2%
> NC(=O)c1c(NC(=O)CN2CCOCC2)sc2c1CCC2
  VDR inh = 7%
> N#Cc1ccc(OCC(O)CS(=O)(=O)c2ccc(F)cc2)cc1 (stereo not given)
  VDR inh = -13%
> CCCCCCC(=O)Nc1nnc(CC)s1
  VDR inh = 10%
> CC(C)c1ccc(OCC(=O)NNC(=O)c2cnccn2)cc1
  VDR inh = 1%

> CCOc1ccc(OCC(=O)NCCc2nc3ccccc3[nH]2)cc1
  VDR inh = 0%
> CN1CCN(c2ccc(NC(=O)c3cccc(S(=O)(=O)N4CCCC4)c3)cc2)CC1
  VDR inh = 3%
> CCC(C)NC(=O)C1CCC(=O)N(c2ccc3c(c2)OCO3)C1c1ccc(OC)cc1 (stereo not given)
  VDR inh = 6%
> COc1ccccc1OCCNC(=O)c1ccc2c(c1)OCCO2
  VDR inh = 7%
> Cc1ccc(-n2[nH]c(C)c(C=Nc3ccc(Br)cn3)c2=O)cc1
  VDR inh = 17%
> CCOc1cccc(C(=O)N(Cc2ccco2)C2CCS(=O)(=O)C2)c1 (stereo not given)
  VDR inh = -11%
> Cc1ccc(-n2ncc(C(=O)NC3CC3)c2C2CCN(C(=O)OC(C)(C)C)CC2)c(C)c1
  VDR inh = -3%
> Cc1ccc(NC(=O)CN(C)C(=O)COC(=O)CNS(=O)(=O)c2ccc(F)c(F)c2F)cc1
  VDR inh = -24%
> COC(=O)CN(c1ccccc1[N+](=O)[O-])S(=O)(=O)c1ccccc1
  VDR inh = 6%
> Cc1ccccc1CSCCNC(=O)CN(c1ccccc1)S(=O)(=O)N(C)C
  VDR inh = -3%

> Cc1cc(-c2cc(-c3ccc(Cl)cc3)on2)nc(NC2CCCC2)n1
  VDR inh = -12%
> Cn1ncc2c(NCc3ccccc3Cl)nc(NCCO)nc21
  VDR inh = 9%
> COc1ccc(OCC(=O)Nc2cc(OC)ccc2N2CCCCC2)cc1
  VDR inh = -25%
> CCOC(=O)Cc1csc2nc3sc(C)c(C)c3c(=O)n12
  VDR inh = 11%
> CNCc1ccccc1Sc1cccc(O)c1
  VDR inh = 11%
> COc1ccc2c(c1)O[C@@H](c1ccc3c(c1)OCO3)[C@H](OC(=O)N[C@H]1CCCc3ccccc31)C2=O
  VDR inh = 26%
> COc1ccc(/C=N/N2C(=O)CN(C(=O)c3ccccc3)C2c2ccc(OC)cc2)cc1 (stereo not given)
  VDR inh = u
> O=C(Oc1c(CN2CCOCC2)cc(Cl)c2cccnc12)c1ccccc1
  VDR inh = 3%
> COc1ccc(C)cc1NC(=O)Cn1c(=O)n(Cc2nc(C)no2)c(=O)c2ccccc21
  VDR inh = -2%
> COc1cccc(=O)c2c(C)oc(C)c12
  VDR inh = -13%

> NC(=O)c1ccc(=O)n(Cc2ccc(F)c(F)c2)c1
  VDR inh = 23%
> O=C(COc1ccc(Cl)cc1)NCc1ccncc1
  VDR inh = -2%
> O=C(CP(=O)(c1ccccc1)c1ccccc1)N1CCOCC1
  VDR inh = -16%
> Cc1onc(-c2c(F)cccc2Cl)c1C(=O)OCC(=O)Nc1c(C)n(C)n(-c2ccccc2)c1=O
  VDR inh = -9%
> O=C(Cn1nnc2ccccc2c1=O)N[C@H](C(=O)O)c1ccccc1
  VDR inh = -19%
> COc1ccc(CNC(=O)c2noc3c2CCCC3)cc1
  VDR inh = -1%
> Cc1cccc(NC(=O)CN2C(=O)N/C(=C\c3ccc(-c4cccc(C(=O)O)c4)o3)C2=O)c1
  VDR inh = -9%
> CCCc1nc2ccccc2n1CCOc1ccccc1
  VDR inh = 13%
> Cn1c2c(c(=O)n(C)c1=O)CN(Cc1ccc(F)cc1)CN2
  VDR inh = 10%
> Cc1ccc(S(=O)(=O)NC(C)C(=O)NC2CCCCCC2)cc1 (stereo not given)
  VDR inh = 2%

> O=C(Nc1ccc(O)cc1)/C(=C\c1cccs1)NC(=O)c1ccccc1
  VDR inh = -8%
> O=C(CCCC(=O)Nc1ccccc1Br)N/N=C/c1c(F)cccc1Cl
  VDR inh = 1%
> O=C1NC(c2cc3c(cc2Cl)OCO3)Oc2ccccc21 (stereo not given)
  VDR inh = 2%
> O=C(CSc1nnc(COc2ccccc2)n1-c1ccccc1)c1ccccc1
  VDR inh = -7%
> COCCn1c(CNC(=O)c2cc([N+](=O)[O-])ccc2Cl)nc2cccnc21
  VDR inh = 6%
> O=c1oc2cc(O)ccc2cc1-c1ccccc1
  VDR inh = 5%
> CCCOc1ccc(C(F)(F)F)cc1NS(=O)(=O)c1ccc(Cl)nc1
  VDR inh = 0%
> COc1cccc2cc(C(=O)CS(=O)(=O)c3ccc(Cl)cc3)c(=O)oc12
  VDR inh = -17%
> C/C(=N\NC(=O)Cc1cccn1C)c1ccc2ccccc2c1
  VDR inh = -6%
> C=CCc1ccccc1OCC(CN1CCCCC1)OC(C)=O (stereo not given)
  VDR inh = -19%

> CCCCC(NS(=O)(=O)c1ccc(C)cc1)C(=O)Oc1ccc2c3c(c(=O)oc2c1)CCC3 (stereo not given)
  VDR inh = -5%
> CCOCCCNC(=O)C(c1ccc(Cl)cc1)N(Cc1cccs1)C(=O)c1ccccn1 (stereo not given)
  VDR inh = -11%
> CCCN(CCC)Cc1cc2ccccc2c2c1COC2
  VDR inh = 7%
> O=C(Nc1ccccn1)c1ccc(COc2ccccc2Cl)o1
  VDR inh = -8%
> Cc1ccc(CCN2CC(C(=O)NCCCN3CCCCCC3)CC2=O)cc1 (stereo not given)
  VDR inh = -5%
> O=S(=O)(Nc1cccc2ccccc12)c1cccc2nonc12
  VDR inh = -3%
> Cc1nn(C)c(C)c1S(=O)(=O)N1CCC(C(=O)NC2CCCc3ccccc32)CC1 (stereo not given)
  VDR inh = -15%
> CCOc1nc(-c2ccccc2)ccc1-c1noc(COC)n1
  VDR inh = -5%
> CCC(=O)Nc1ccc(C(=O)COC(=O)c2nc3nccc(C)n3n2)cc1
  VDR inh = 4%
> COC(=O)C1C(=O)C2=C(CC1C)NC(=O)CC2c1ccccc1 (stereo not given)
  VDR inh = 4%
> O=C(O)Cc1sc(NC2CCCCC2)nc1-c1ccc(Cl)cc1
  VDR inh = -6%
> CCS(=O)(=O)N1CCC2(CC1)OC(=O)C(C)=C2C(=O)NCc1ccccc1C
  VDR inh = 3%
> CCN1CCCC1CNC(=O)c1ccc2c(c1)NC(=O)/C(=C\c1ccc(OC)c(OC)c1)S2 (stereo not given)
  VDR inh = -4%

Screening data: PubChem, National Center for Advancing Translational Sciences (NCATS)

An excerpt, so the mix of outcomes need not match the whole.
